MgrA-DNA mod = alters Staphylococcus aureus MgrA binding to DNA; fluorescence polarization; inhibition, %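 (about 10 µg/mL by stock and volumes)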; hit rate 0.13% among 84,000; AID 602314;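 active = above 50% in either of two replicates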;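 note: 0% = protein plus DNA without compound and 100% = DNA alone without protein; higher means less MgrA bound to DNA so lower polarization; one replicate is shown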
Sa helicase inh = S. aureus DNA helicase inhibition. purified S. aureus helicase, fluorescence unwinding assay; about half of the hits fall short of the stated cut. inhibition, %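 (tested at about 80 µM)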. hit rate 0.05% among 120,000. AID 485395;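 active = both duplicates at 50% or more, or one of them with a favoured structure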;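 note: 0% = mean of negative control wells and 100% = mean of positive control wells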
* marks the source's active call; other numbers are inactive results; · = no result given.

SMILES	MgrA-DNA mod	Sa helicase inh
C=CCn1c(SCC(=O)Nc2sc(C(=O)OC)c(C)c2C(=O)OC)nc2ccccc21	·	-4
Cc1ccnc(NCc2ccc(Cl)cc2)c1	·	4
COc1cc(-c2nn(CN3CC(C)OC(C)C3)c(=S)o2)cc(OC)c1OC (stereo unspecified)	·	6
O=C(NCc1ccco1)c1ccccc1	-1.6	18
CCC(c1nnc(SCC(=O)c2ccccc2)n1Cc1ccccc1)N(C)C (stereo unspecified)	·	15
O=c1c2ccccc2nnn1CSc1ncnc2sccc12	·	-8
CCOC(=O)NC1C=CS(=O)(=O)C1 (stereo unspecified)	0.6	4
Cc1csc2nc(O)c(C(=O)NCCCN3CCOCC3)c(=O)n12	·	1
CCOC(=O)c1csc(C2COc3ccccc3O2)n1 (stereo unspecified)	1.7	·
C=CCN1C(=O)S/C(=C\c2cn(CC(=O)N3CCOCC3)c3ccccc23)C1=O	2.7	2
Cc1onc(-c2ccccc2)c1C(=O)c1ccc(F)cc1	·	-5
Nc1c(-c2ccc(F)cc2)cnc2ncnn12	-0.6	·
N#Cc1ccccc1NC(=O)CCCC(=O)O	-2.3	·
O=C(Nc1ccc(Cl)cc1)N1CCC(c2nc(-c3ccc(F)cc3)no2)CC1	1.1	-3
O=C(COc1ccccc1)c1c[nH]c2ccccc12	-5.0	-16
O=C(NCCN1CCOCC1)c1n[nH]c(=O)c2ccccc12	·	-1
Cc1nc(-c2nnc(SCc3ccc(C(F)(F)F)cc3)o2)cs1	-1.9	·
CCOc1cc(C=C2C(=O)NC(=S)NC2=O)cc(Br)c1OCc1ccc(Cl)cc1	21	13
CCNCC(=O)Nc1ccc2c(c1)OCCO2	·	11
Fc1ccc(-c2nc3ncccc3o2)cc1	-1.3	4
Cc1noc(C)c1COc1cccc(C(=O)N2CCC(C(N)=O)CC2)c1	·	18
O=C(O)C1Cc2ccccc2O1 (stereo unspecified)	·	10
COC(=O)c1cc2nc3c(c(C(F)(F)F)n2n1)CCc1ccccc1-3	·	33
CCOC(=O)CCc1ccc2c(c1)NC(c1ccc(N(C)C)cc1)O2 (stereo unspecified)	2.3	·
O=C(N[C@@H](CO)[C@H](O)c1ccc([N+](=O)[O-])cc1)C(Cl)Cl	0.3	·
O=C(NCC1CC1)Nc1ccc(Cl)cc1	·	17
NNc1nc2ccc(Cl)cc2s1	·	-7
COc1ccc(N(C(=O)C(F)(F)F)C(C(=O)NC2CCCCC2)c2ccc(C)o2)cc1 (stereo unspecified)	-1.7	-3
CCCOc1ccc(CN(CCC)C(=S)NC)cc1OC	·	15
CN(Cc1cccs1)C(=O)C1CC(=O)N(c2ccc3c(c2)OCCO3)C1 (stereo unspecified)	·	-7

Three structures already listed, sorted by molar mass, falling:
SMILES	MgrA-DNA mod	Sa helicase inh
C=CCn1c(SCC(=O)Nc2sc(C(=O)OC)c(C)c2C(=O)OC)nc2ccccc21	·	-4
N#Cc1ccccc1NC(=O)CCCC(=O)O	-2.3	·
O=C(O)C1Cc2ccccc2O1 (stereo unspecified)	·	10

The results go on.
SMILES	MgrA-DNA mod	Sa helicase inh
CCOC(=O)c1c(N)sc2c1CCCS2	·	-21
COc1ccccc1/C=C/C=NN1CCN(Cc2ccccc2)CC1	·	13
O=C(CSc1ncccn1)N/N=C/c1ccc2c(c1)OCO2	·	-36
Cc1c(-c2nnnn2-c2ccc(F)cc2)cnc2cc3c(cc12)OCO3	2.8	·
Cc1nnsc1C(=O)N1CCC(C(=O)c2ccccc2)CC1	-2.0	·
COC(=O)c1sccc1NC(=O)c1ccccc1Cl	-3.6	·
CCOC(=O)c1c(C)[nH]c(C(=O)CN2C(=O)CCC2=O)c1C	·	14
Cc1ccc(NC(=O)CSC(C)C(=O)O)cc1 (stereo unspecified)	·	8
CCCC(=O)c1cc(-c2nc3ccccc3n2C)n(C)c1	-1.4	21
O=C1C=C(Nc2ccc3c(c2)OCO3)CC2(CCCCC2)C1	·	-2
Cc1[nH]nc2c1C1(C(=O)N(C)c3ccccc31)C(C#N)=C(N)O2 (stereo unspecified)	·	41
COc1cccc(CC(=O)Nc2cccc(OC)c2)c1	·	7
O=C(NCc1ccccc1)c1nc[nH]c1C(=O)NCc1ccccc1	1.2	-1
CC1=C(C#N)c2nc(N)c(C#N)c(C)c2/C1=C\c1ccc(-c2ccc(C(=O)O)cc2)o1	5.7	·
CC1(C)CC(=O)C/C(=N\NC(=O)CCC(=O)Nc2ccccc2)C1	1.1	7
O=C1OCCC1OC(=O)C1(c2ccc(Cl)cc2)CCCC1 (stereo unspecified)	6.8	-5
CC(=O)Oc1ccc(-c2coc3cc(OC(C)=O)cc(OC(C)=O)c3c2=O)cc1	1.8	·
O=[N+]([O-])c1cc(C(F)(F)F)ccc1NCCNS(=O)(=O)c1ccc2ccccc2c1	-2.0	·
CCC(C)c1ccc(NC(=O)COC(=O)/C=C/c2cccs2)cc1 (stereo unspecified)	0.9	3
O=C(NCCc1ccc(Cl)cc1)c1cnn(-c2ccc(Cl)cc2)c1C(F)(F)F	1.8	·

Arranged by molecular weight (descending): 18 of the compounds above
SMILES	MgrA-DNA mod	Sa helicase inh
O=C(NCCc1ccc(Cl)cc1)c1cnn(-c2ccc(Cl)cc2)c1C(F)(F)F	1.8	·
C=CCN1C(=O)S/C(=C\c2cn(CC(=O)N3CCOCC3)c3ccccc23)C1=O	2.7	2
COC(=O)c1cc2nc3c(c(C(F)(F)F)n2n1)CCc1ccccc1-3	·	33
CCC(C)c1ccc(NC(=O)COC(=O)/C=C/c2cccs2)cc1 (stereo unspecified)	0.9	3
CCOC(=O)CCc1ccc2c(c1)NC(c1ccc(N(C)C)cc1)O2 (stereo unspecified)	2.3	·
O=C(NCc1ccccc1)c1nc[nH]c1C(=O)NCc1ccccc1	1.2	-1
CC1(C)CC(=O)C/C(=N\NC(=O)CCC(=O)Nc2ccccc2)C1	1.1	7
O=C(CSc1ncccn1)N/N=C/c1ccc2c(c1)OCO2	·	-36
CCCOc1ccc(CN(CCC)C(=S)NC)cc1OC	·	15
O=C1OCCC1OC(=O)C1(c2ccc(Cl)cc2)CCCC1 (stereo unspecified)	6.8	-5
O=C(NCCN1CCOCC1)c1n[nH]c(=O)c2ccccc12	·	-1
COC(=O)c1sccc1NC(=O)c1ccccc1Cl	-3.6	·
Cc1onc(-c2ccccc2)c1C(=O)c1ccc(F)cc1	·	-5
O=C(COc1ccccc1)c1c[nH]c2ccccc12	-5.0	-16
CCOC(=O)c1c(N)sc2c1CCCS2	·	-21
CCNCC(=O)Nc1ccc2c(c1)OCCO2	·	11
N#Cc1ccccc1NC(=O)CCCC(=O)O	-2.3	·
O=C(O)C1Cc2ccccc2O1 (stereo unspecified)	·	10

The list goes on.
SMILES	MgrA-DNA mod	Sa helicase inh
O=C(Nc1nc(-c2cccs2)cs1)C1CC(=O)N(c2ccc3c(c2)OCCO3)C1 (stereo unspecified)	·	5
C/C(=N\NC(N)=S)c1ccccc1O	0.7	·
CN1CCN(CCCNC(=O)c2sc3ccccc3c2Cl)CC1	·	13
COc1ccccc1NC1CC(=O)N(c2cccc(Cl)c2)C1=O (stereo unspecified)	·	3
CCOC(=O)C1CCN(C(=O)C(CC)c2ccccc2)CC1 (stereo unspecified)	·	1
CC12CCC(=O)N1C(C(=O)NCC13CC4CC(CC(C4)C1)C3)CS2 (stereo unspecified)	·	-8
C=C1/C(=N/O)CC2CC1C2(C)C (stereo unspecified)	1.2	4
CC(=O)OCCc1c(COC(C)=O)[nH]c(C(=O)OCc2ccccc2)c1C	·	-2
CC12CCC(C/C1=N\O)C2(C)C (stereo unspecified)	1.1	·
Cn1nc(C(F)(F)F)c(-c2ccccc2)c1NC(=O)c1cccnc1	-2.8	·
CSC1=C(C#N)C(c2ccccc2Cl)C(C(=O)c2cccs2)C(O)(C(F)(F)F)N1 (stereo unspecified)	·	-14
CCN=c1scc(C)n1/N=C/c1cccs1	·	-3
CCOc1ccc(C(=O)CC(SCc2ccc(Cl)cc2)C(=O)O)cc1 (stereo unspecified)	-2.6	·
Fc1cc2c(c(CSc3ccc(Cl)cc3)c1)OCOC2	1.3	·
COc1ccc(-c2ccnc(SCc3ccc(Cl)cc3Cl)n2)cc1	3.1	·
O=C(Nc1nc2c(s1)Cc1ccccc1-2)C1=COCCO1	·	6
CC(C)(C)OC(=O)N1C(N)=C(C#N)C2(CCOCC2)c2[nH]c(C(F)(F)F)nc21	1.9	4
COc1ccc(-c2nc3cnccn3c2NCc2ccc3c(c2)OCO3)cc1CN1CCOCC1	0.2	10
COc1ccc(/C=C2\CC/C(=C\c3ccc(OC)cc3)C2=O)cc1	3.1	·
CC(C)n1nc(C(C)(C)C)cc1C(C)(C)C	1.8	·
O=C1CC(N2CCN(S(=O)(=O)c3cccs3)CC2)C(=O)N1CCc1ccccc1 (stereo unspecified)	·	11
O=S(=O)(Nc1nnc(-c2ccc(Cl)cc2)o1)c1ccc2c(c1)OCCO2	·	7
CC(=O)Oc1cccc2c1OCCO2	-2.1	·
O=C(NC1Cc2ccccc2C1)C1CCCCC1	-0.5	·
Cc1cc(Oc2ccc(Cl)cc2)c2ccccc2n1	-1.9	·
Cc1c(C(=O)OCC(C)C)[nH]c2c1C(=O)CC(c1ccc(F)cc1)C2 (stereo unspecified)	·	6
N/C(=N\c1nc(=O)c2ccccc2s1)NC(=O)c1ccc(Cl)c(Cl)c1	0.6	7
COc1ccccc1CN(C)C(=O)CSc1nc2sccc2c(=O)n1C	·	-7
COC(=O)c1ccc(COc2cc3oc(=O)cc(C)c3cc2Cl)cc1	·	21
CN=C(Nc1ccc(Cl)c(Cl)c1)c1ccco1	·	10
CCN(CC)CC(=O)N1CCCC1=O	-2.1	-1
O=C(OCc1c(F)cccc1Cl)c1ccco1	0.2	-9
N#Cc1ccc(COC(=O)c2cccnc2Cl)cc1	-0.8	16
O=C(Nc1ccc2oc(-c3ccccc3)nc2c1)c1cc([N+](=O)[O-])ccc1Br	1.7	·
CN1CCC(N(C)CC(O)COc2ccccc2-c2ccccc2)CC1 (stereo unspecified)	-1.0	-1
O=C(O)c1cccc(S(=O)(=O)Nc2ccc(O)cc2)c1	·	8
Cc1nc(=O)c(-c2ccccc2)c(C)n1-c1cccc(/C=C/C(=O)O)c1	0.8	19
COc1ccccc1NC(=O)Cc1noc(COC(=O)c2c(F)cccc2Cl)n1	·	-7
Cc1c(C(=O)NCCCN2CCOCC2)cc(-c2ccccc2)n1-c1ccccc1	-0.8	·
O=C(O)/C=C/C(=O)N1CCN(Cc2ccccc2)CC1	2.5	11
c1ccc(-c2nn3cnnc3c3ccccc23)cc1	·	-10
O=S(=O)(c1ccc2c(c1)CCO2)N1CC=C(c2ccccc2)CC1	-2.1	·
CC(O)CN1CNC(=S)NC1 (stereo unspecified)	-2.2	·
CCc1ccc(C(N)CC(=O)O)cc1 (stereo unspecified)	-0.6	·
N#Cc1ccccc1OCC(=O)O	-1.1	-14
COc1cccc(Cn2ccn(Cc3ccccc3)c(=O)c2=O)c1	·	18
Clc1cccc(Cl)c1Cn1nnc(-c2ccccc2)n1	-1.5	11
CCc1cc(=O)oc2c(C)c(O)ccc12	2.2	3
C=CCOc1ccc(CNn2nnnc2N)cc1	-0.9	3
O=C(CSc1nnc(CNC(=O)c2c(F)cccc2Cl)o1)NC1CCCCC1	·	25

Next compounds:
SMILES	MgrA-DNA mod	Sa helicase inh
NS(=O)(=O)c1ccc(NC(=S)NC2CCCCC2)cc1	2.5	1
COc1cc(NC(=O)c2nn3c(c2Br)NC(c2cccs2)CC3C(F)(F)F)cc([N+](=O)[O-])c1 (stereo unspecified)	0.7	·
CCn1c(CCC(=O)Nc2nc3ccccc3[nH]2)nc2cc(S(=O)(=O)N(C)C)ccc21	·	-11
CCOC(=O)c1c(CS(=O)(=O)c2ccccc2)n(C)c2cc(Br)c(O)cc12	4.7	·
O=C(Nc1nnc(CCS(=O)(=O)c2ccc(Br)cc2)s1)c1ccccc1Cl	-3.2	·
Cc1ccc(CNC(=O)c2oc3ccc(S(=O)(=O)N4CCCC4)cc3c2C)cc1	·	-2
O=C(c1ccccc1)C1CCN(C(=O)c2c(F)cccc2F)CC1	-1.6	·
CCOC(=O)c1cc(C(=O)OC)c(C)nc1SCC(=O)OC	-1.0	·
CC(=O)Nc1ccc(Sc2ccc(F)cc2)cc1	-1.9	·
CCCCN1CCC1C(=O)OC (stereo unspecified)	-0.7	-5
N#CC(C(=O)C(F)(F)F)c1ccccc1 (stereo unspecified)	·	-9
O=C(NC(=S)NCc1ccco1)c1ccc(Cl)cc1	·	25
NC(=S)NC12CC3CC(CC(C3)C1)C2	·	-4
CN1N=C2c3ccccc3CCC2C1c1ccc(F)cc1 (stereo unspecified)	-1.9	·
CC1=CC(C)(C)NC(=S)N1c1ccccc1	·	17
Cc1ccc(C(=O)Nc2ccc(-c3nc4cc(C)ccc4o3)cc2)cc1	·	-2
CC(C)c1ccc(NC(=O)c2cc(S(=O)(=O)N3CCCC3)cn2C)cc1	0.8	0
CC(=O)NCCC(=O)Nc1ccc(F)cc1C	·	-2
COc1ccc(C2CC(c3ccccc3)=NN2C(=O)Cn2c(NCCO)nc3ccccc32)cc1 (stereo unspecified)	·	-10
COc1ccc(CNC(=O)C2CCN(S(C)(=O)=O)CC2)cc1	-0.6	6
O=C(Cc1ccc2c(c1)OCCCO2)c1ccc(O)cc1O	·	-19
CCc1ccc(NC(=O)c2ccccc2)cc1	·	17
COCCNC(=O)C1CCC(C(=O)NCCOC)CC1 (stereo unspecified)	-0.2	11
COc1ccc2c(=O)c(-c3ccc(OC)c(OC)c3)coc2c1	-1.9	18
COc1ccc2nc(SC/C(O)=C(\C#N)C(=O)NCc3ccccc3)[nH]c2c1	·	11
CN(C)C(=O)C12CC3(C)CC(C)(CC(C)(C3)C1)C2	·	15
CC(C)c1ccc(NC(=O)C2CC(=O)Nc3nc4ccccc4n32)cc1 (stereo unspecified)	·	3
O=C(O)CCc1n[nH]c(=S)[nH]c1=O	·	4
COc1ccccc1C(=O)NNc1ncccc1C(F)(F)F	·	-19
O=C(Nc1ccc(Br)cn1)Nc1ccccc1C(F)(F)F	-2.5	12
O=S(=O)(NC1CCCC1)c1ccc(-n2cnnn2)cc1	-0.4	-2
O=C(CSc1nnc(C2CC2)n1C1CC1)c1ccc(CC(=O)N2CCOCC2)s1	·	-13

Compound activity: PubChem BioAssay, ICCB-Longwood Screening Facility, Harvard Medical School

These rows are one share of the data (hit frequency here may not be typical).
